High-throughput results (PubChem BioAssay)
2A StopGo: FMDV 2A StopGo reporter, luciferase signal. human cells with a luciferase reporter of 2A StopGo recoding; control for the full effect not named in the record. Potency, µM (titrated, usually from 57.9 µM), for inactives: top-dose signal change, negative = less light. 410,000 tested, 1.2% active; active = well fitted falling curve with a large enough effect; inconclusive = small, poorly fitted or top-dose-only effect; inactive = no such curve, though single readings can be large or run the other way; tested in HEK293T cells; also: % is scaled to controls: 0 for no effect and ±100 for the full control effect; nearly all actives have a fitted effect of over 45% in size; luciferase light after 4 h
Lassa entry inh: blocks Lassa virus binding to or entry into cells. Lassa virus pseudotype entry inhibition, cell reporter; control for the full effect not named in the record. Potency, µM (highest dose often 37.9 µM), inactives show at the top dose activity change, negative = inhibition, most hits filed as inhibitors. 300,000 tested, 1.2% active; active means well fitted inhibition curve with a large enough effect; inconclusive means small, poorly fitted or top-dose-only effect, or effect the other way; inactive means flat fitted curve, though single readings scatter; tested in HEK293 cells; also: % is scaled to controls: 0 for no effect and ±100 for the full control effect; nearly all actives have a fitted effect of over 50% in size; luciferase read-out
Cruzain noTriton: blocks cruzain activity in detergent-free assay. P25779. purified cruzain, Z-FR-AMC fluorescence, no detergent. Potency, µM, for the others: max response, negative = inhibition, usual class: inhibitors. 200,000 tested, 2.3% active. AID 1476; active = well fitted curve in the direction sought with a large enough effect; inconclusive = small, poorly fitted or top-dose-only effect, or another doubt; inactive = no such curve, though single readings can be large; an effect the other way counts as inactive or inconclusive;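 also: plate controls were enzyme without inhibitor for no effect and buffer without enzyme for full effect; nearly all actives have a fitted effect of over 40% in size; top concentration of the series not given in the record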
Target sequence (P25779 123-467 limits assumed): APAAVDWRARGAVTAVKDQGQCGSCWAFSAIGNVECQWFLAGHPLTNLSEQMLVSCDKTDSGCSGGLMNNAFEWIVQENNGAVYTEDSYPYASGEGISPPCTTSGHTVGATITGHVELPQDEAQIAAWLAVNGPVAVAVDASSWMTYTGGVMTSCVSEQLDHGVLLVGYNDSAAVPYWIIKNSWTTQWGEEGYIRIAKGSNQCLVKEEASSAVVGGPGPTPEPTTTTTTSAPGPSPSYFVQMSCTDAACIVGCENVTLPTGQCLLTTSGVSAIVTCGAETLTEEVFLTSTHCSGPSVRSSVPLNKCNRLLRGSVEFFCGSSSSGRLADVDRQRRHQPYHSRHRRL
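Detergent-free condition (0.00005% Triton X-100) in acetate buffer pH 5.5 with DTT. 1.5 nM enzyme and compound were pre-mixed 15 min, then 2 uM Z-FR-AMC substrate added; reaction progress from fluorescence change between first and third reads (60 s).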
Marburg entry inh: inhibitors of Marburg virus binding or cell entry; Marburg virus pseudotyped entry inhibition, cell reporter; control for the full effect not named in the record; about a third of the inactives were read at about 46 µM; Potency, µM (highest dose often 37.8 µM), for the others: top-dose activity change, negative = inhibition, most hits filed as inhibitors; 300,000 tested, 1.8% active; AID 540276; active = well fitted inhibition curve with a large enough effect; inconclusive = small, poorly fitted or top-dose-only effect, or effect the other way; inactive = flat fitted curve, though single readings scatter; tested in HEK293 cells; about a fifth of its hits are not listed in these tables; also: % is scaled to controls: 0 for no effect and ±100 for the full control effect; luciferase read-out
SARS PLP yeast: blocks SARS-CoV papain-like protease in a yeast assay; Potency, µM (doses to about 32.9 µM), inactives show at the top dose activity, positive = growth rescue; 330,000 tested, 0.19% active; AID 485353; S. cerevisiae expressing SARS-CoV PLpro, growth rescue; control for the full effect not named in the record; also: 0% is about no effect; nearly all actives have a fitted effect of over 55% in size; growth read by luminescence after 48 h
NS1 function inh: influenza NS1 inhibition; 270,000 tested, 0.4% active; Potency, µM (series often up to 46.1 µM), inactives show at the highest dose activity, positive = more growth; S. cerevisiae slowed by influenza A NS1, growth recovery by OD600; also: actives are rising curves; nearly all actives have a fitted effect of over 50% in size
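OD600 was taken as the measure of yeast growth restored by compound in an NS1-expressing S. cerevisiae strain. Cells had been washed out of glucose medium and diluted 1:100 into galactose -URA medium, pH 6.0.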
Cruzain inh Det: blocks cruzain activity in presence of Triton detergent; purified cruzain, Z-FR-AMC fluorescence, 0.01% Triton; AID 1478; Potency, µM, without a hit: max response, negative = inhibition, hits mostly inhibitors; 200,000 tested, 0.43% active; P25779; active = well fitted curve in the direction sought with a large enough effect; inconclusive = small, poorly fitted or top-dose-only effect, or another doubt; inactive = no such curve, though single readings can be large; an effect the other way counts as inactive or inconclusive;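 also: plate controls were neutral wells for no effect and buffer without enzyme for full effect; nearly all actives have a fitted effect of over 40% in size; top concentration of the series not given in the record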
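In this qHTS format, compounds are incubated with 1.5 nM cruzain for 15 min at room temperature before 2 uM Z-FR-AMC is added. Release of AMC is followed at 360/450 nm, and progress is taken as the 60 s fluorescence difference.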
RE007 growth inh: less growth of the S. pombe RE007 Vpr strain | Potency, µM (highest dose often 92.2 µM), inactives show at the highest dose activity change, negative = less growth | AID 651644 | 360,000 tested, 0.21% active | S. pombe RE007 Vpr strain, BacTiter-Glo ATP luminescence, 24 h; control for the full effect not named in the record; active = well fitted falling curve with a large enough effect; inconclusive = small, poorly fitted or top-dose-only effect; inactive = no such curve, though single readings can be large or run the other way;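 also: % is scaled to controls: 0 for no effect and ±100 for the full control effect; nearly all actives have a fitted effect of over 50% in size; the assay follows cell death caused by Vpr and the record does not say whether a fall means rescue or toxicity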
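Fission yeast RE007 carrying one integrated HIV-1 vpr copy, seeded at OD 0.01 in PMG+AL medium with 23 nL pinned compound. Grown 24 h at 30 degrees; viability read by BacTiter-Glo luminescence after 5 min.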
* hit, by the source's call; ? = inconclusive; / = no result given; & = joins results of further samples; [ ] = remark or other dose. Unless noted, calls follow the shape of the dose curve; as a rule, active means well fitted rising curve with a large enough effect; inconclusive means small, poorly fitted or top-dose-only effect; inactive means no such curve, though single readings can be large or run the other way. Potency is read from the fitted curve at half-maximal effect.

no.	canonical_smiles	Marburg entry inh	SARS PLP yeast	NS1 function inh	Lassa entry inh	Cruzain inh Det	Cruzain noTriton	2A StopGo	RE007 growth inh
1	O=C(COC(=O)c1ccc(S(=O)(=O)N2CCCC2)cc1)NCc1ccco1	10.1%[46.1 µM]	-0.1%	-3.0%	15.7%	/	/	-14.9%	-8.4%
2	COC(=O)CCNC(=O)c1ccc2nc(Cc3ccc(OC)c(OC)c3)oc2c1	/	36.1%	-4.9%	/	/	/	24.0%	12.7%
3	Cc1nc2cc(C(=O)NCc3cccnc3)ccc2n1-c1ccc(F)cc1F	?	-0.7%	/	0.4%[46.1 µM]	/	/	21.6%	-2.7%
4	COc1ccc(S(=O)(=O)N2CCCC(C(=O)N3CCOCC3)C2)cc1OC (stereo unspecified)	14.7%[46.1 µM]	7.2%	2.9%	9.9%	/	/	-15.3%	-2.0%
5	CCCCCOC(=O)C1=C(C)Nc2nnnn2C1c1ccc(OC)c(OC)c1OC (stereo unspecified)	-18.1%	3.3%	-3.1%	-29.5%	-10.6%	?	-25.1%	-11.5%
6	Cn1c(COc2ccccc2)nnc1SCC(=O)c1cccc([N+](=O)[O-])c1	-17.1%	-0.3%	11.2%	9.7%	1.6%	-6.4%	/	6.5%
7	Cc1ccc(-n2c([S-])c(C(=O)Nc3ccc(OC(F)F)cc3)[n+]3ccc(C(=O)NCCO)cc23)cc1C	29.7%[46.1 µM]	2.3%	/	4.6%[46.1 µM]	/	/	16.3%	-18.0%
8	CC(C)c1ccc(CN2CCSCC2)cc1	-1.4%	0.0%	-9.1%	-11.1%	/	/	-27.7%	11.8%
9	CC(C)n1nnnc1SCC(=O)Nc1ccc2c(c1)OCO2	?	-19.8%	6.6%	?	-1.0%	-6.2%	31.0%[activator]	19.8%
10	O=c1[nH]c(S)c(/C=C2\C=Nc3ccccc32)s1	/	0.2%	-3.5%	/	/	/	-7.1%	19.6%
11	CC(=O)N1CCC(N2CCN(Cc3ccc(C)cc3)C(CCO)C2)CC1 (stereo unspecified)	5.1%	0.1%	-9.7%	?	/	/	-1.8%	?
12	Cc1cccc(NC(=O)CN2C(=O)N/C(=C/c3ccc(C)s3)C2=O)c1	1.9%	-3.7%	-1.0%	-18.8%	-3.7%	3.98µM*	-11.1%	9.2%
13	C=CCNC(=O)C1CC(=O)N(c2ccc(Br)cc2)C1 (stereo unspecified)	4.8%	4.1%	-10.3%	-0.9%	-2.7%	-4.6%	4.0%	30.6%
14	COc1ccccc1N(CC(=O)NC1CCCCC1)S(=O)(=O)c1cccs1	/	2.6%	-5.8%	/	/	/	-11.3%	8.3%
15	Brc1ccccc1-n1nnc(-c2ccnc3ccccc23)n1	/	-2.1%	-2.8%	/	/	/	26.7%	-2.2%
16	COc1cc(CNCCNC(=O)c2cccs2)cc(OC)c1OC	/	11.9%	2.7%	/	/	/	-17.1%	-3.0%
17	CCCc1[nH]nc2c1C(c1cccc(OC)c1)C(C#N)=C(N)O2 (stereo unspecified)	4.4%	?	2.1%	17.2%	-1.7%	-1.9%	?	-6.8%
18	O=C(CSc1nc(-c2ccccc2)c(-c2ccccc2)o1)Nc1nncs1	-8.2%	-1.1%	-6.1%	-0.1%	-0.4%	6.5%	?	23.2%
19	CCCn1nnnc1NCc1ccc(C(C)C)cc1	1.6%	-5.5%	-6.5%	-15.9%	/	/	-5.6%	26.4%
20	Cc1cc(C)cc(OCc2ccc(C(=O)NC3CCOC3=O)o2)c1 (stereo unspecified)	3.0%[46.1 µM]	3.4%	/	/	/	/	14.7%	-17.7%
21	Cc1ccc(C(=O)OCC(=O)N2CC(C)CC(C)C2)cc1S(=O)(=O)N1CCCCC1 (stereo unspecified)	9.5%[46.1 µM]	-4.3%	/	-11.5%	/	/	-22.1%	-1.0%
22	CN(Cc1cnccn1)Cc1nc(Cc2ccccc2Cl)no1	-3.0%[46.1 µM]	-0.1%	2.1%	21.9%[46.1 µM]	/	/	-9.4%	-13.5%
23	C=C(C)Cn1c(SCC(=O)O)nc2c1c(=O)[nH]c(=O)n2C	/	-2.2%	6.2%	/	-0.2%	-2.2%	-8.5%	8.9%
24	CCOc1ccc(C(=O)Nc2nnc(S(=O)(=O)N(CC)c3ccccc3C)s2)cc1	/	/	/	14.0%[46.1 µM]	-0.7%	4.3%	-4.9%	/
25	CCOC(=O)C1(CCc2ccccc2)CCN(C(=O)c2cccc(C)n2)CC1	/	-0.8%	-9.3%	/	/	/	54.3%[activator]	-5.6%
26	COc1ccc(S(=O)(=O)N2c3cc(C)ccc3OCC2C(C)(C)C)cc1 (stereo unspecified)	?	-30.0%	-34.8%	?	-2.8%	-0.4%	-21.8%	-3.3%
27	c1ccc2c(c1)Cn1c-2nc2ccccc21	-22.6%[46.1 µM]	-24.0%	-103.0%	?	-0.5%	-13.9%	-16.0%	?
28	Cc1cc2cc(CCNC(=O)c3ccc(C)c([N+](=O)[O-])c3)c(=O)[nH]c2cc1C	?	3.0%	25.7%	?	-10.2%	?	?	19.7%
29	CC(C)Oc1ccc(CNC(=O)CCC(=O)N2CC(C)Sc3ccccc32)cc1 (stereo unspecified)	/	-1.2%	-14.6%	/	/	/	-21.3%	5.1%
30	Cc1cc(C)c2c(N)c(C(=O)c3ccccc3)sc2n1	/	0.9%	-0.8%	/	/	/	-24.9%	-10.1%
31	O=S(=O)(Nc1ncccn1)c1ccc(NC(=S)Nc2ccccc2Cl)cc1	/	1.2%	1.3%	/	/	/	-16.0%	-3.4%
32	Cc1cc2n(n1)SC(Nc1ccccc1)N2 (stereo unspecified)	7.5%	-7.8%	-14.8%	6.0%	2.4%	-19.3%	17.5%	2.4%
33	N#CC1=C(N)SC(N)=C(C#N)C1CCc1ccccc1	-0.2%&-0.2%	-10.5%	?	11.2%	-2.2%	-7.4%	?	-11.0%
34	O=C(O)C1=NOC(CNC(=O)c2ccccc2Cl)C1 (stereo unspecified)	10.9%[46.1 µM]	1.4%	/	2.0%	/	/	-21.9%	5.9%
35	COc1ccccc1CNC(=O)c1ccc2[nH]c(C)c(C)c2c1	/	/	/	?	-5.1%	-13.2%	2.6%	/
36	Cc1[nH]c2ccccc2c1C(=O)C(=O)N1CCN(c2ccccc2)CC1	1.0%	-5.7%	-0.4%	4.8%	/	/	7.9%	2.1%
37	Cc1ccccc1CSCCNC(=O)C1CCN(S(=O)(=O)Cc2ccccc2)CC1	?	/	/	-0.4%[46.1 µM]	-4.6%	-1.2%	-2.0%	/
38	COC(=O)C1=C(C)N(Cc2ccccc2)C(=NCCCCO)N[C@H]1CCc1ccccc1	/	1.2%	-5.1%	/	/	/	16.7%	-11.2%
39	CNC(=S)N(CCc1c(C)[nH]c2ccc(Cl)cc12)Cc1cc(OC)c(OC)c(OC)c1	?	16.7%	20.3%	?	-8.4%	?	-26.7%	-4.0%
40	CC1CCCC(N2CCN(C(=O)c3ccccc3F)CC2)C1 (stereo unspecified)	14.0%	-6.5%	7.6%	15.7%	/	/	-13.1%	-2.3%
41	O=C(COC(=O)/C=C/c1ccccc1[N+](=O)[O-])NCC(F)(F)F	?	-3.7%	/	12.7%	/	/	9.1%	-8.4%
42	CCN(CCCc1ccccc1)CCCc1ccccc1	5.8µM*	-5.3%	-1.8%	?	3.5%&9.5%&0.1%	-12.1%&-2.8%&-4.6%	-10.6%&1.8%	10.7%[18.4 µM]
43	CC(C)(C)OC(=O)N1CCC(c2c(C(=O)N3CCN(Cc4ccccc4)CC3)cnn2-c2cccc(Cl)c2)CC1	/	/	/	?	-3.0%	?	0.0%	/
44	COc1cc(OC)c(Nc2nc3ccccc3c3nncn23)cc1Cl	0.8%[46.1 µM]	/	/	?	-0.7%	-13.5%	-6.4%	/
45	CCOc1ccc(CCNC(=O)CCn2c(=O)c3cccn3c3ccc(F)cc32)cc1OCC	/	/	/	2.1%[46.1 µM]	-7.4%	13.1%	-16.9%	/
46	CC(C)N(C(=O)CSc1cn(CC(=O)N2CCCCCC2)c2ccccc12)C(C)C	/	/	/	-10.9%[46.1 µM]	-4.6%	1.0%	0.0%	/
47	CCNc1nc(N)nc(Oc2ccc(OCCOc3ccc(Cl)cc3Cl)nn2)n1	0.7%	4.4%	4.2%	-14.1%	-3.3%	13.2%	/	-15.5%
48	CCCC(=O)Nc1ccc(-c2nc3cc(C)c(C)cc3o2)cc1	20.9%	-2.5%	-94.8%	23.8%	5.0%	5.5%	82.6%[activator]	7.0%
49	CN1C(=O)Cc2cc(S(=O)(=O)CCC(=O)Nc3ccc(F)c(Cl)c3)ccc21	/	/	/	?	-0.9%	-2.3%	-13.8%	/
50	Cc1ccc[n+](C(C)C(=O)c2ccc(-c3ccccc3)cc2)c1 (stereo unspecified)	?	-26.4%	-1.0%	?	-5.4%	-4.1%	-28.3%	-27.8%
51	CCOc1ccc(C2C(C(=O)C3CC3)N3C=C(C#N)C=CC3C2(C#N)C#N)cc1 (stereo unspecified)	0.2%	-4.5%	24.3%	/	-4.3%	-19.3%	/	/
